YopH PTP inh: YopH tyrosine phosphatase inhibitors, primary screen, biochemical, fluorescence Ex485/Em525. YopH tyrosine phosphatase [Yersinia enterocolitica]. inhibition, %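 (about 10 µM by stock and volumes)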. 140,000 tested, 0.16% active. AID 898, 2007;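 active means inhibition of 50% or more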;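 further: controls were vehicle for no effect and minimum signal wells for full effect; inactives centre near -20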
Mtb bLac sens: beta-lactam sensitization of Mtb H37Rv, H37Rv; 330,000 tested, 0.27% active; inhibition, % at 25 µM; M. tuberculosis H37Rv growth with meropenem, percent inhibition; hits of this screen are not shown here;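 active means about 74% or more and at least 40 points above the plate without the antibiotic, then above 30% in a dose series; inconclusive means first-round hits that could not be retested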;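 further: growth measured after seven days incubation then overnight dye step; 0% = bacteria only wells and 100% = bacteria with antibiotic; twin plates without the antibiotic show which effects depend on it; some results filed as inactive read as strong as hits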
Mtb H37Rv: M. tuberculosis H37Rv growth inhibitors, H37Rv strain (AID 1626) | M. tuberculosis H37Rv growth inhibition; higher % means a stronger effect | inhibition, % at 10 µM; hits with a dose series show IC50 in µM | 220,000 tested, 0.95% active;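 active means confirmed in a dose series; inconclusive means inhibition above 80% but not taken into the dose series; inactive means below 80% or under 30% at every dose of the series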;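 further: bacteria incubated seven days before Alamar blue readout; 0% = bacteria only wells and 100% = bacteria with antibiotic wells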
Arbovirus anti: antivirals against arbovirus infection, primary screen, cell-based, full library, 10K replicate subset. AID 1251, 2008. arbovirus infection cell-based antiviral screen. inhibition, % at 10 µM. 200,000 tested, 0.37% active;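 active means inhibition from about 30%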;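 further: bluetongue infection of BSR cells; cell survival read as ATP light after 72 h; 0% = infected wells without compound and 100% = uninfected wells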
RecA intein inh: Mtb RecA intein splicing inhibitors, primary screen, biochemical, fluorescence, HTS. Protein RecA (Mycobacterium tuberculosis (strain ATCC 25618 / H37Rv)), P9WHJ3. cell-free RecA intein splicing. inhibition, %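 (about 9 µM by stock and volumes)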. 290,000 tested, 0.75% active; in the data active means inhibition above about 30%; inconclusive means no clear call, values can overlap the other calls;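 further: 0% = vehicle wells and 100% = reference inhibitor control wells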
Target sequence (P9WHJ3 whole entry, looked up): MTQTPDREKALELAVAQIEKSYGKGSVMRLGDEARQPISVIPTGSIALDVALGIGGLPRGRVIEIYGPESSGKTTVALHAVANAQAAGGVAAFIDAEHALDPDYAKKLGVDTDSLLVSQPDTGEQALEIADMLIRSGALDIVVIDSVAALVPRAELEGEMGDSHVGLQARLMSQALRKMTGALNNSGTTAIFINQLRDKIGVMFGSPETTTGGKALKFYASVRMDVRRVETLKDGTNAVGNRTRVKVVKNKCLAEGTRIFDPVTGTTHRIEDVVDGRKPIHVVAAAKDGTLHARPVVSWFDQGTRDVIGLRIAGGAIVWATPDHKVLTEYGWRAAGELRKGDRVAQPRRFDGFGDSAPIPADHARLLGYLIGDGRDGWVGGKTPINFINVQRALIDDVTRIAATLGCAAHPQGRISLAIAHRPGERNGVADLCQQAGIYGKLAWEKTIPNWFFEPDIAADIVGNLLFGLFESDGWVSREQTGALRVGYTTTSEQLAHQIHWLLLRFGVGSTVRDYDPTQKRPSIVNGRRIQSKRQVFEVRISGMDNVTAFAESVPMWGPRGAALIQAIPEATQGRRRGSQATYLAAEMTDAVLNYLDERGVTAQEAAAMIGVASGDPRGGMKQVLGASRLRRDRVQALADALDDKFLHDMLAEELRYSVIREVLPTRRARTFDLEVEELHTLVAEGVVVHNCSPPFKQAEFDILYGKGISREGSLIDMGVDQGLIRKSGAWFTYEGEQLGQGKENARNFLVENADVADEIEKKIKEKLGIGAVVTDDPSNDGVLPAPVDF
Arbovirus anti repeat: recorded beside Arbovirus anti, whose call it bears; inhibition, %; measured here: 10K subset replicate screen; many hits read low in the repeat;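 first of two repeat runs on a subset; 0% = infected and 100% = uninfected wells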
* hit, by the source's call; ? = inconclusive; / = no result given. These rows are one share of the data, so the mix of outcomes need not match the whole.

SMILES	YopH PTP inh	Mtb bLac sens	Mtb H37Rv	Arbovirus anti	RecA intein inh	others
O=C(CSc1nc2ccccc2[nH]1)Nc1ccccc1F	-17	-7	15%	3	0.4
O=C1/C(=C/c2ccccc2Cl)SC(=S)N1CCCC(=O)N(CCO)c1ccccc1	/	26	/	/	14
O=C(CS(=O)CC(=O)Nc1ccc(Cl)cc1)NCC1OCCc2ccccc21 (centres undefined)	-34	/	-24%	-13	2.8
O=C(c1cccc(S(=O)(=O)Nc2ccccc2Cl)c1)N1CCC1	/	-11	/	/	-0.6
Cn1c(SCC(=O)N2CCOCC2)nnc1-c1ccco1	/	1	/	/	5.2
Nc1nc(Nc2cccc(F)c2)nc(N2CCOCC2)c1[N+](=O)[O-]	/	-4	4%	/	0.7
CCN=C1SC(CC(=O)NCC)C(=O)N1CC (centres undefined)	-20	-7	3%	1	1.1
CNCC(C)COc1ccccc1OCc1ccccc1 (centres undefined)	-19	-7	0%	-9	3.5
Cc1[nH]c2ccc(OC(F)(F)F)cc2c1CCNCc1cccc([N+](=O)[O-])c1	/	50	/	/	2.7
c1ccc(Cc2cc[n+](Cc3ccccc3)cc2)cc1	/	-7	-3%	-3	0.2
Nc1ncnc2c1ncn2CCN1CCCCC1	-16	18	3%	4	-0.1
CCc1[nH]c(C(=O)O)c(C)c1C(=O)OC	/	4	-11%	/	-0.2
CCOC(=O)CC(=O)CSc1nc(C)cc(-c2cccnc2)c1C#N	5	5	0%	6	-0.5
CCOc1ccc(C2C3=C(CCCC3=O)N(CC(=O)O)C3=C2C(=O)CCC3)cc1	/	16	/	/	-130
O=C(Cc1cccs1)Nc1ccc(-c2nnc(-c3ccccc3)o2)cc1	-17	5	-4%	/	0.0
CCOC(=O)CC(NC(=O)c1ccccc1)c1ccc(OC)cc1 (centres undefined)	/	6	-8%	4	-6.4
Cc1ccc(C)c(NNC(N)=S)c1	/	96	11%	-8	-1.9
Cc1cccc(CC2S/C(=N/c3ccccn3)NC2=O)c1 (centres undefined)	-26	85	44%	-9	-0.2
CN(C)/C=N/NC(=O)C1Cc2c(ccc3ccccc23)O1 (centres undefined)	/	-7	/	/	1.5
CN(CC(=O)NC1CCCC1)S(=O)(=O)c1cnc[nH]1	/	-3	2%	-5	-0.2
COc1ccc(NC(=O)CS(=O)(=O)c2cn(CC(=O)N3CCOCC3)c3ccccc23)cc1OC	/	-13	/	/	-1.9
Cc1cc(N2CCN(c3ccc(F)cc3)CC2)nc(-c2ccccc2)n1	-20	2	5%	-19	13
Cc1cccc(C)c1OCC(=O)Nc1ncn[nH]1	-29	-2	3%	4	-1.8
CC(=O)/C(N=Nc1ccc(C(=O)O)cc1)=C(\C)O	/	-7	-5%	/	4.4
COc1ccccc1C(=O)COC(=O)c1cccc(S(=O)(=O)N2CCCC2)c1	/	-17	/	/	4.9
Following part.
SMILES	YopH PTP inh	Mtb bLac sens	Mtb H37Rv	Arbovirus anti	RecA intein inh	others
CCC1Oc2ccccc2N(CC(=O)NCCCN2CCOCC2)C1=O (centres undefined)	-46	-7	-3%	12	0.3	Arbovirus anti repeat=5
CCCC(=O)Nc1cccn(Cc2ccccc2Br)c1=O	-17	-2	/	4	-2.5
Fc1cccc(NC(=S)NNc2ccccc2)c1	/	2	/	/	3.6
CC(=O)c1ccc(NC(=O)CN2CCC(NC(=O)C3CCCCC3)CC2)cc1	/	-25	-1%	1	0.5
CCOc1ccc(C(=O)NCC(=O)OCC(=O)NC2CCCC2)cc1	/	-1	5%	5	1.1
CCN(CC)CCc1c(C)[nH]c(C(=O)OCc2ccccc2)c1C	-2	5	0%	-30	-0.5
Cc1ccc(NC(=O)CS(=O)CC(=O)N(CC(=O)NC2CCCC2)c2ccc3c(c2)OCCO3)cc1 (centres undefined)	/	-2	-8%	-2	0.7
Cn1c(CCN2CCCCC2)nc2cc(NC(=O)C3CCCCC3)ccc21	-14	?	-3%	-2	-0.6
O=c1[nH]c2c(c(=O)n1Cc1ccccc1)CCC2	-20	-1	2%	5	-0.7
S=C(Nc1ccc2c(c1)OCCO2)Nc1ccccc1Cl	/	1	/	/	-2.4
CC(=O)OCC(=O)Nc1ccccc1OC(F)F	/	0	1%	11	/
CC(NC(=O)Nc1cccnc1)(C(F)(F)F)C(F)(F)F	-43	2	-5%	4	-1.6
O=C(Nc1ccccc1)C1=C[C@H](c2coc3ccccc3c2=O)C[C@H](OCc2ccc(CO)cc2)O1	/	-3	-7%	-2	9.0
CCOc1ccccc1NC(=O)NNS(=O)(=O)c1ccc([N+](=O)[O-])cc1	/	-8	/	/	1.0
CCCc1nn(C)c2c(=O)[nH]c(-c3cc(S(=O)(=O)N(CCO)CCO)ccc3OCC)nc12	/	-5	-1%	/	-0.7
CN(C)c1ccc([N+](=O)[O-])cc1C(=O)NCC(c1ccco1)N(C)C (centres undefined)	/	3	/	/	1.6
COc1cc(OC)c(C(=O)OCC(=O)N2CC(=O)Nc3ccccc32)cc1OC	/	-5	-4%	-3	-0.1
Cn1cnnc1SCC(=O)Nc1c(F)cc(F)cc1Br	-15	-1	6%	8	/
CC(=O)Nc1ccc(OC/C=C(\C)Cl)cc1	-6	-3	77%	-3	-0.8	Arbovirus anti repeat=-2
O=C(Nc1ccn(Cc2c(F)c(F)cc(F)c2F)n1)c1ccc(COc2cc(Cl)ccc2Cl)o1	8	-8	-5%	-11	0.3
COc1cccc(NP(=O)(Oc2ccc(Cl)cc2)Oc2ccc(Cl)cc2)c1	-31	8	11%	-31	18
Cn1c(NC(=O)/C=C/c2c(F)cccc2Cl)cc(=O)n(C)c1=O	/	-5	-6%	-1	4.6
COc1ccc(CCN(C(=O)C(F)(F)F)C(C(=O)NC2CCCCC2)c2ccc(C)s2)cc1 (centres undefined)	-30	-6	-7%	2	-0.4
S=c1nc[nH]c2c1[nH]c1ccccc12	-41	-4	9%	8	-0.6
Cc1ccc(-c2nc3ccccc3c(=O)n2-c2nccs2)cc1	-1	1	7%	-3	3.8
Continuation:
SMILES	YopH PTP inh	Mtb bLac sens	Mtb H37Rv	Arbovirus anti	RecA intein inh	others
COc1ccc(NC2CCCN(C(=O)c3ccc4[nH]c(C)c(C)c4c3)C2)cc1 (centres undefined)	/	2	/	/	-4.2
O=C(NC(=O)N1CCCCCC1)c1ccc(Cl)cc1	/	-9	/	/	0.3
COc1ccc(C(=O)OC2CCCCC2CN(C)C)cc1 (centres undefined)	/	-4	/	/	-4.7
CNC(=O)CNC(=O)Nc1ccc(Cl)c(Cl)c1	/	-3	1%	1	6.6
Cc1cccc(C2=NN(c3ccc(Br)cc3)[C@@H](C(=O)N3CCOC3=O)[C@@H]2c2ccc(F)cc2)c1	-16	22	10%	-29	-48
O=C(Cn1nc(-c2ccccc2)ccc1=O)Nc1cccc(NC(=O)c2ccccn2)c1	/	-8	8%	-16	0.3
CCC(Sc1nc(N)cc(N)n1)C(=O)O (centres undefined)	21	-5	-5%	8	5.2
CCCS(=O)(=O)N1CCCC(C(=O)NCCN(Cc2ccccc2)C(C)C)C1 (centres undefined)	12	-5	-8%	3	-0.8
Cc1ccc(OCCOC(=O)c2c(-c3ccccc3)noc2C)cc1	/	73	/	/	8.2
Cc1oc(-c2ccc(Cl)cc2)nc1CN1CCC(C(=O)NCC2CCCO2)CC1 (centres undefined)	/	2	/	/	1.6
O=C(NC1CCN(Cc2ccccc2)CC1)c1cn(-c2ccccc2)nc1-c1cccnc1	/	-5	/	/	-0.4
O=C1CC(C(=O)N2CCc3ccccc32)CN1c1ccccc1 (centres undefined)	/	-6	/	/	-3.2
OCC1(Cc2ccc(F)cc2)CCCN(CCCC(F)(F)F)C1 (centres undefined)	/	-6	/	/	-1.6
CN1C(=O)CCC(CCC(=O)O)(c2ccccc2O)C1=O (centres undefined)	/	-1	/	/	-1.5
O=C(Cc1n[nH]c(=O)c2ccccc12)NC(c1ccccc1)c1ccccc1	/	-1	6%	/	5.0
Cc1cc(C)c2oc(=O)cc(CN3CCOCC3)c2c1	-106	-3	2%	4	-3.4
COc1cc2[nH]c3c(N4CCN(c5ccc(Cl)cc5)CC4)ncnc3c2cc1OC	-51	4	5%	-2	2.4
COc1ccc(NC(=O)CS(=O)(=O)c2cccc(Cl)c2)cc1	/	21	/	/	0.7
O=C(Nc1scc(-c2ccccc2)c1C(=O)O)c1ccc(F)cc1	/	17	/	/	1.7
O=C(Cn1cc([N+](=O)[O-])cn1)NCc1ccccc1Cl	/	2	/	/	3.5
COC(=O)Cc1c(C)c2ccc(O)c(CN3CCCC(C)C3)c2oc1=O (centres undefined)	-13	-1	-3%	4	-184
COC(=O)c1ccc(C)c(NC(=O)COC(=O)C2CC3CCCC(C2)C3=O)c1 (centres undefined)	/	-2	/	/	-1.2
Cc1csc(NC(=O)CSc2nc(C(C)C)nc3ccccc23)n1	/	9	/	/	16
Cc1cccc(C)c1NC(=O)COC(=O)c1nonc1N	11	6	-5%	-2	-2.2
Nc1ccccc1SCc1cn2ccccc2n1	-26	-2	-3%	-2	2.7
CCOCCCNCC(=O)Nc1ccc(OC(F)(F)F)cc1	8	-1	-6%	1	-2.6
N#C/C(=C(/O)c1ccc([N+](=O)[O-])o1)c1nc2ccccc2[nH]1	/	82	?	/	1.2
CCOC(=O)c1cccc(NC(=O)N[C@@H](C)C(=O)OC)c1	7	-7	-9%	1	0.5

A section from further up:
SMILES	YopH PTP inh	Mtb bLac sens	Mtb H37Rv	Arbovirus anti	RecA intein inh	others
Cc1ccc(C)c(NNC(N)=S)c1	/	96	11%	-8	-1.9
Cc1cccc(CC2S/C(=N/c3ccccn3)NC2=O)c1 (centres undefined)	-26	85	44%	-9	-0.2
CN(C)/C=N/NC(=O)C1Cc2c(ccc3ccccc23)O1 (centres undefined)	/	-7	/	/	1.5
CN(CC(=O)NC1CCCC1)S(=O)(=O)c1cnc[nH]1	/	-3	2%	-5	-0.2
COc1ccc(NC(=O)CS(=O)(=O)c2cn(CC(=O)N3CCOCC3)c3ccccc23)cc1OC	/	-13	/	/	-1.9
Cc1cc(N2CCN(c3ccc(F)cc3)CC2)nc(-c2ccccc2)n1	-20	2	5%	-19	13
Cc1cccc(C)c1OCC(=O)Nc1ncn[nH]1	-29	-2	3%	4	-1.8
CC(=O)/C(N=Nc1ccc(C(=O)O)cc1)=C(\C)O	/	-7	-5%	/	4.4
COc1ccccc1C(=O)COC(=O)c1cccc(S(=O)(=O)N2CCCC2)c1	/	-17	/	/	4.9
CCC1Oc2ccccc2N(CC(=O)NCCCN2CCOCC2)C1=O (centres undefined)	-46	-7	-3%	12	0.3	Arbovirus anti repeat=5
CCCC(=O)Nc1cccn(Cc2ccccc2Br)c1=O	-17	-2	/	4	-2.5
Fc1cccc(NC(=S)NNc2ccccc2)c1	/	2	/	/	3.6
CC(=O)c1ccc(NC(=O)CN2CCC(NC(=O)C3CCCCC3)CC2)cc1	/	-25	-1%	1	0.5
CCOc1ccc(C(=O)NCC(=O)OCC(=O)NC2CCCC2)cc1	/	-1	5%	5	1.1
CCN(CC)CCc1c(C)[nH]c(C(=O)OCc2ccccc2)c1C	-2	5	0%	-30	-0.5
Cc1ccc(NC(=O)CS(=O)CC(=O)N(CC(=O)NC2CCCC2)c2ccc3c(c2)OCCO3)cc1 (centres undefined)	/	-2	-8%	-2	0.7
Cn1c(CCN2CCCCC2)nc2cc(NC(=O)C3CCCCC3)ccc21	-14	?	-3%	-2	-0.6
O=c1[nH]c2c(c(=O)n1Cc1ccccc1)CCC2	-20	-1	2%	5	-0.7
S=C(Nc1ccc2c(c1)OCCO2)Nc1ccccc1Cl	/	1	/	/	-2.4
CC(=O)OCC(=O)Nc1ccccc1OC(F)F	/	0	1%	11	/
CC(NC(=O)Nc1cccnc1)(C(F)(F)F)C(F)(F)F	-43	2	-5%	4	-1.6
O=C(Nc1ccccc1)C1=C[C@H](c2coc3ccccc3c2=O)C[C@H](OCc2ccc(CO)cc2)O1	/	-3	-7%	-2	9.0
CCOc1ccccc1NC(=O)NNS(=O)(=O)c1ccc([N+](=O)[O-])cc1	/	-8	/	/	1.0
CCCc1nn(C)c2c(=O)[nH]c(-c3cc(S(=O)(=O)N(CCO)CCO)ccc3OCC)nc12	/	-5	-1%	/	-0.7
CN(C)c1ccc([N+](=O)[O-])cc1C(=O)NCC(c1ccco1)N(C)C (centres undefined)	/	3	/	/	1.6
